Source: PubChem BioAssay (National Center for Advancing Translational Sciences (NCATS))
D2 ag: human D2 receptor agonism in beta-arrestin assay; P14416; DiscoveRx PathHunter D2 beta-arrestin, luminescence, 90 min; 100% = 57 uM dopamine signal; activation, % (concentration not given with the values); AID 624465; 0.084% of 360,000 active; in the data active = activation above about 40%; inconclusive = about 15% to 40%; inactive = below about 15%; also: compound concentration not given in the record; the text of the record calls up to 30% inactive
Target sequence (P14416 whole entry, looked up): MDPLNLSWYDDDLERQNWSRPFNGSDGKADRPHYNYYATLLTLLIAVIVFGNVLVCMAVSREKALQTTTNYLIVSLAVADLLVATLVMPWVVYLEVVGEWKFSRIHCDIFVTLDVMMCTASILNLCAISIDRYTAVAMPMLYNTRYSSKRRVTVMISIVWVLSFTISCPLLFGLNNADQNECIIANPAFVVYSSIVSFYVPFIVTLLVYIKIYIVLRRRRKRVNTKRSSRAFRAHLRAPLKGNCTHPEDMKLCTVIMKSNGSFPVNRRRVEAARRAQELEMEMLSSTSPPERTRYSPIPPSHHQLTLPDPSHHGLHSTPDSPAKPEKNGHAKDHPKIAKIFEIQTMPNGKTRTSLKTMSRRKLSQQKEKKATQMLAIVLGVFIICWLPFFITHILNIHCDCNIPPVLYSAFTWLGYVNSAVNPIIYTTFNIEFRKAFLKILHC
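DiscoveRx PathHunter D2 beta-arrestin cells (2,100/well) attached overnight, then compound-stimulated 90 min at 37 C in HBSS/10 mM HEPES/0.1% Tween-20 buffer; beta-galactosidase complementation read by luminescence after 1 h at ambient temperature. Dopamine 57 uM final (EC100) as control.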
Six1-Eya2 inh: inhibitors of human Six1/Eya2 interaction | AlphaScreen GST-Six1/His-Eya2 binding, biochemical; stronger effect = lower value; control for the full effect not named in the record | activity change, % (test concentration not listed) | 0.56% of 360,000 active; in the data active = activity change below about -65%; inconclusive = about -30% to -65%; inactive = above about -30%; also: % is scaled to controls: 0 for no effect and ±100 for the full control effect; compound concentration not given in the record
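Homogeneous AlphaScreen proximity assay pairing GST-Six1 with His-tagged Eya2 (added as 5X mix: 250 nM and 500 nM) in 50 mM Tris pH 8.0, 300 mM NaCl, 1 mM TCEP. Glutathione donor and nickel acceptor beads; 1 h, 37 °C, dark.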
TRPV1 potentiator: potentiators of human vanilloid receptor 1 (TRPV1); Q8NER1; TRPV1-expressing cells, Fluo-8 calcium influx, capsaicin EC20 potentiation; host cell line not named in the record; control for the full effect not named in the record; potentiation, % at 8.33 µM; 0.02% of 320,000 active; AID 540277; active means potentiation above 80%; inconclusive means 30% to 80%; inactive means below 30%; also: 0% is about no effect
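Cells expressing TRPV1 were dye-loaded with Fluo-8 and read kinetically: 10 s baseline, 3 min after compound (agonist portion), then 2 min after EC20 capsaicin (allosteric enhancer portion). Calcium-bound dye fluorescence at 480/520 nm.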
Sfp PPTase inh: inhibitors of Bacillus subtilis Sfp phosphopantetheinyl transferase; Biochemical Sfp PPTase activity, qHTS; Potency, µM, without a hit: max response, negative = inhibition, usual class: inhibitors; 3.5% of 310,000 active; active = well fitted inhibition curve with a large enough effect; inconclusive = small, poorly fitted or top-dose-only effect, or another doubt; inactive = no such curve, though single readings can be large or run the other way;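 also: the enzyme is Sfp with the accession as filed and its product quenches rhodamine fluorescence; potency is read from the fitted curve at half-maximal effect; 0% = enzyme reaction without inhibitor and -100% = no enzyme wells; top concentration of the series not given in the record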
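Sfp 15 nM + cpd, 15 min RT; start w/ rhodamine-CoA 5 uM, BHQ-2-YbbR 12.5 uM (final); 50 mM Hepes pH 7.6, 10 mM MgCl2, 0.01% NP-40, 0.01% BSA; read 525/598 nm at 0 and 30 min.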
D2 potentiator: human D2 receptor positive allosteric modulation; P14416; AID 624464; 0.23% of 360,000 active; potentiation, % (concentration not given with the values); DiscoveRx D2 beta-arrestin cells, luminescence, 90 min; 100% = 57 uM dopamine signal; active = potentiation of 50% or more; inconclusive = 30% to 50%; inactive = 30% or less;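 also: compound concentration not given in the record; tested on top of an EC20 dose of dopamine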
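PathHunter beta-arrestin assay in DiscoveRx D2 cells. Compounds were added with an EC20 of dopamine (50 nM final) for 90 min at 37 deg C. Luminescence was read 1 h after detection reagent, with 57 uM dopamine as the EC100 control.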
PINK1 expr mod: modulators of PINK1 expression | PINK1 immunofluorescence, high-content cytometry, 24 h | Potency, µM (highest dose often 76.6 µM), for the others: at the highest dose activation (PINK1 increase), most hits filed as activators | 0.2% of 410,000 active | AID 624263; active = well fitted activation curve with a large enough effect; inconclusive = small, poorly fitted or top-dose-only effect; inactive = flat fitted curve, though single readings scatter; cell line not stated here;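 also: potency is read from the fitted curve at half-maximal effect; % of control where 0% means no effect; nearly all actives have a fitted effect of over 65% in size; a mitochondrial uncoupler was the plate control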
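Stable cell line, 250 cells/well, 12 h attachment; compounds pinned at 5 concentrations, 24 h; CCCP control. Fixed with nuclear dye, primary antibodies 12 h at 10 degrees C, secondary plus cell stain; laser-scanning cytometer read.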
CtBP-E1A blk: blocks the CtBP interaction with E1A. AlphaScreen GST-E1A/His-CtBP binding, 1536-well; stronger effect = lower value; control for the full effect not named in the record. activity change, % (no concentration beside the values). 0.49% of 340,000 active. AID 651724; in the data active means activity change below about -65%; inconclusive means about -30% to -65%; inactive means above about -30%; also: % is scaled to controls: 0 for no effect and ±100 for the full control effect; compound concentration not given in the record
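Steps: dispense buffer (Tris pH 8.0, NaCl 300 mM, TCEP 1 mM, BSA, Tween 20); add 5X protein mix (GST-E1A, His-CtBP, 125 nM each); pin 23 nL compound; 2 h at 37 °C, dark; add 5X beads (50 ug/mL); 1 h; read.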
* = called active by the depositor; ? = inconclusive; · = no result given; [ ] = another dose, or the depositor's remark.

Each structure is followed by: Sfp PPTase inh	Six1-Eya2 inh	CtBP-E1A blk	PINK1 expr mod	D2 ag	D2 potentiator	TRPV1 potentiator
1	Cc1ccoc1C(=O)N1CCCC(CO)(Cc2ccc(F)cc2)C1 (stereo not given)
  6%	-14	5	-0.8%	-2.0	-13	-1
2	COc1ccc(/C=N/NC(=O)c2c([N+](=O)[O-])c(C)nn2C)cc1
  3%	-1	6	0.5%	-2.8	-18	-13
3	COc1cccc(Nc2nc3ccc(OC)cc3s2)c1
  -7%	-8	-1	3.1%	-4.0	-13	-20
4	C=CCNc1nc(C(=O)OCC(=O)Nc2cc(S(C)(=O)=O)ccc2Cl)cs1
  ·	-5	4	-1.2%	-2.2	-24	-2
5	Cc1cc(NC(=O)c2cc(C(C)(C)C)oc2C)no1
  17%	-7	·	1.0%	-3.0	-15	-35
6	COc1ccc2c(CC(=O)Nc3nnc(C4CC4)s3)coc2c1
  8%	1	7	5.1%	0.1	1	3
7	O=C(N/N=C/c1ccco1)c1ccccn1
  50µM*	-18	5	·	-0.1	-15	15
8	O=C(NCc1cccc(Cl)c1)C1CCN(S(=O)(=O)c2ccc(F)cc2)CC1
  4%	-4	·	2.4%	1.0	0	-18
9	CCC(=O)NC(=S)Nc1ccccc1C(=O)NC1CCCCC1
  0%	-5	2	-0.5%	-2.9	-27	28
10	COc1cc(NC(=O)CN(c2ccc(C)cc2)S(=O)(=O)c2c(C)noc2C)cc(OC)c1
  26%	-7	1	1.6%	1.8	-11	-8
11	CCN(CC)S(=O)(=O)c1ccc(NC(=O)c2ccc(NS(C)(=O)=O)cc2)cc1
  14%	5	2	8.5%[38.3 µM]	0.3	-2	10
12	CNC(=O)c1ccc2c(c1)nnn2C
  20%	22	·	2.9%	0.7	-2	-21
13	Cc1ccc(C(=O)/C=C2/NC(=O)CS2)cc1
  12%	-2	-1	-3.0%	-4.2	7	7
14	CCCS(=O)(=O)n1nc(-c2ccc(OC)cc2)cc1N
  11%	1	0	1.5%	-2.4	-5	2
15	COc1ccc(C(=O)NC2CC3CCCC(C2)N3Cc2ccccc2)c(OC)c1 (stereo not given)
  5%	-2	0	3.2%	0.4	-1	4
16	Cc1ccc2[nH]c(CN3CCN(C)C(CCO)C3)c(C)c2c1 (stereo not given)
  17%	-4	3	1.9%	-4.0	-2	4
17	Cc1ccc(S(=O)(=O)N2CC3(O)CN(C(=O)OC(C)C)N(C(=O)OC(C)C)CC3(OC(=O)NCc3ccco3)C2)cc1 (stereo not given)
  ·	0	0	0.1%	-4.3	5	·
18	O=C(Nc1ccc(O)c2c(=O)cc(-c3ccccc3Cl)oc12)c1cccc(Cl)c1
  ?	4	-23	5.1%	-2.7	-8	6
19	CN(C)c1ccc(NC2=C([N+](=O)[O-])CS(=O)(=O)C2)cc1
  ?	-3	20	2.2%[38.3 µM]	2.8	-1	6
20	O=C(Cc1cccc2ccccc12)N/N=C/c1ccc(O)c([N+](=O)[O-])c1
  6%	-3	16	-1.3%	-1.5	-11	2
21	COC(=O)c1sc(S(=O)(=O)N2CCCCC2C)c(C(=O)OC)c1C (stereo not given)
  ·	9	-3	1.2%	-0.2	-2	-5
22	CN(C(=O)Cn1nnc(-c2ccc(F)cc2)n1)C1CCS(=O)(=O)C1 (stereo not given)
  ·	8	·	0.4%	-4.0	-9	-17
23	COc1ccc(N(CC(=O)O)S(=O)(=O)c2ccc(OC)c(OC)c2)cc1
  3%	1	7	-1.5%	-1.0	-2	?
24	CC(C)(C)n1nnnc1C(c1cc2ccccc2o1)N1CCCCC1 (stereo not given)
  ·	-1	1	1.0%	·	·	·
25	CC1(C)Cc2cccc(OCC(=O)N3CCN(c4cccc(Cl)c4)CC3)c2O1
  ·	-9	4	1.7%	-3.8	-13	1
26	Cc1ccc(C)c(Cn2c(=O)n(C)c(=O)c3sccc32)c1
  12%	2	8	3.1%	13	-6	23
27	CCOCC(=O)N1CCN(c2ccccc2OC)CC1
  11%	6	·	0.9%	6.5	-6	17
28	C=C[C@@H]1c2ccccc2N(S(=O)(=O)c2ccc(C)cc2)[C@H](c2ccccc2C(F)(F)F)C1(C#N)C#N
  ·	2	4	1.3%	0.6	-5	6
29	CCOc1ccc(NC(=O)CN(C)C(=O)c2ccc(N3CCOCC3)c([N+](=O)[O-])c2)cc1OCC
  4%	1	2	0.1%	-3.5	-12	10
30	CCOc1ccc(/C=N/NC(=O)CNC(=O)c2ccc(S(=O)(=O)N3CCOCC3)cc2)cc1
  15%	2	5	0.7%	-2.7	-6	5
31	CCN1C(=O)/C(=C\N2CCCCCC2)SC1=S
  4%	-7	-8	0.3%	-1.3	-8	-10
32	C=CCNC(=S)/N=c1\sccn1C
  -5%	4	2	0.9%	-2.6	-15	12
33	Oc1csc(Cc2nc(-c3ccc4ccccc4c3)cs2)n1
  -9%	1	-5	11%	-4.3	-19	3
34	CC(C)(C)NC(=O)c1cc(F)c(F)cc1Cl
  1%	2	-2	-1.4%	-3.4	-4	3
35	COCCNCc1nc2sc(C)c(-c3ccccc3)c2c(=O)[nH]1
  -6%	-6	-7	2.8%	0.2	4	3
36	COc1ccc(/C(C)=N/NS(=O)(=O)c2cc(C)ccc2C)c(OC)c1
  8%	7	·	-0.2%	1.5	-12	11
37	O=C(/C=C/c1ccccc1)Nc1cc(S(=O)(=O)N2CCOCC2)ccc1N1CCCC1
  -13%	-7	-9	0.5%	0.6	3	-2
38	CCCN1CCOC(CC(=O)Nc2ccc([N+](=O)[O-])cc2)C1=O (stereo not given)
  3%	-3	·	0.2%	3.3	-2	-28
39	CCc1nc2c(OCC(=O)C(C)(C)C)cccn2c1N(C)C(=O)Nc1ccccc1OC
  ·	4	2	2.0%	-4.9	-11	·
40	Cc1c(NC(=O)CSc2cccc3cccnc23)c(=O)n(-c2ccccc2)n1C
  -24%	-91*	-87*	10%	-5.2	-6	?
41	CC1(C)CC(=O)C2=C(C1)Nc1ccccc1NC2
  10%	7	0	1.5%	-2.8	-1	3
42	CCOC(=O)[C@]12CCC=C1N(CCC1=CCCCC1)C(=O)[C@H](CC(=O)N1CCCC1)C2
  ·	13	-6	-0.3%	·	·	·
43	COc1ccc(/C=N/NC(=O)c2cc(-c3ccccc3)nc3ccccc23)cc1O
  20%	-25	-19	10%	0.5	-7	10
44	c1ccc(-n2nnnc2SCc2cccc(CSc3nnnn3-c3ccccc3)n2)cc1
  17%	-2	6	0.4%	2.6	27	4
45	Cc1csc(C(C)N(C)C(=O)c2ccc(OC3CCN(Cc4ccccn4)CC3)cc2)n1 (stereo not given)
  1%	-7	-1	-0.3%	-5.2	-1	5
46	CCOc1ccc(CCNC(=O)CN(C)S(=O)(=O)c2ccc3c(c2)CCC(=O)N3)cc1OCC
  15%	-1	5	3.3%[38.3 µM]	0.0	-3	2
47	Cc1ccc2c(Cl)c(C(=O)Nc3cccnc3)sc2c1
  ?	-1	-3	1.8%	0.8	-6	-3
48	Cc1ccccc1N(CC(=O)NCCSc1ccccn1)S(=O)(=O)c1ccccc1
  3%	-10	-5	1.5%	-3.5	-6	21
49	CCN(CC)C(=O)C1CCCN(c2ncnc3c2cnn3-c2cccc(C)c2)C1 (stereo not given)
  -20%	-2	7	3.6%	-1.8	-8	0
50	COc1cc(/C=N/N2CCCCC2)cc(OC)c1O
  45µM*	-17	1	2.5%	2.9	2	10
51	C=CCOc1ccc(/C=C/C(=O)OCC(=O)NCc2cccs2)cc1
  ·	3	6	?	-4.1	-8	-4
52	CCOc1cc(S(=O)(=O)NCCc2ccccc2C)c(OCC)cc1-n1cnnn1
  -1%	0	2	8.6%[38.3 µM]	-0.2	-2	1
53	COC(=O)C(C)N(C#N)c1nc(NC(C)C)nc(SC)n1 (stereo not given)
  17%	0	1	0.5%	-1.4	-3	10
54	C/C(=N/NC(=O)COc1ccc(C(C)(C)C)cc1)c1ccc(N2CCOCC2)cc1
  ·	-4	-3	2.9%	-3.7	-2	·
55	C[C@H]1CNC(=O)c2c(C(=O)Nc3cccc(Cl)c3)ncn21
  ·	?	-27	1.7%	-0.8	·	·
56	O=C(Nc1cc(S(=O)(=O)Nc2ccccc2Cl)ccc1O)c1ccc(F)cc1F
  ·	-8	-2	?	1.7	-2	·
57	Cc1n[nH]c(C)c1CCN(C)C(=O)C1CCC(=O)N(CC2CCCCC2)C1 (stereo not given)
  19%	19	5	1.9%	1.8	-15	1
58	CNc1c(NS(=O)(=O)c2ccc(C(C)(C)C)cc2)c(=O)oc2ccccc12
  2%	3	24	2.4%	-2.4	14	1
59	O=c1[nH]c(-[n+]2ccccc2)c(/C=N/N=C(\[O-])c2ccccc2)s1
  -13%	3	-11	0.0%	-3.2	1	10
60	COc1cccc(/C=N\NC(=O)c2cc(OCC(F)(F)F)ccc2OCC(F)(F)F)c1
  7%	6	-7	14%	-4.4	-4	21
61	CCOc1ccccc1N1CCN(C(=O)c2cc(S(=O)(=O)N3CCCCC3)ccc2C)CC1
  ·	-9	·	-0.1%	9.1	1	-19
62	Cc1ccc(NC(=S)N(CCCN2CCCC2)Cc2cccn2Cc2ccc(Cl)cc2)cc1Cl
  3%	-6	10	3.1%	-0.6	-8	12

Compounds were not picked by outcome; overall some 3.7% were active at least once.
